GIV Gai3 FP – inhibitors of GIV peptide binding to Galpha-i3, primary screen, biochemical, fluorescence polarization, FITC-GIV GBA peptide, rat Galphai3 | percent of control (FP), % (no concentration beside the values) | 0.42% of 210,000 active | Guanine nucleotide-binding protein G(i) subunit alpha-3 (Rattus norvegicus), P08753 | 90 min; active compounds read low; scaled: aluminum fluoride 0%, vehicle 100% | AID 1224905, 2016;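 active = replicate mean at 85% of control or lower, very high polarization wells dropped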;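 also: wells of about 15 µL received 100 nL stock; the first replicate is given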
Target sequence (P08753 whole entry, looked up): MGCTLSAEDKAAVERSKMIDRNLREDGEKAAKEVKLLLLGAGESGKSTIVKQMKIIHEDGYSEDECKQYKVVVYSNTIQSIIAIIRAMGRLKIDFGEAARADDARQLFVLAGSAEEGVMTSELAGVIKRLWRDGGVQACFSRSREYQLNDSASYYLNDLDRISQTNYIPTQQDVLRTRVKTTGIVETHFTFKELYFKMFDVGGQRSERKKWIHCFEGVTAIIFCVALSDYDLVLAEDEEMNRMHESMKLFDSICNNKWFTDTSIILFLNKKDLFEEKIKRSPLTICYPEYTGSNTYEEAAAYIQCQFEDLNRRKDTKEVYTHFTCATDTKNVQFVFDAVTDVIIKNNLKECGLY
HCMV NEC inh – inhibitors of HCMV UL50-UL53 interaction, biochemical, HTRF; HCMV UL50-UL53 nuclear egress complex (human cytomegalovirus); normalized percent inhibition; inhibition, % (no concentration beside the values); 0.15% of 190,000 active;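 active = both replicates at 50% or more, plus weaker picks with an unusually low signal ratio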;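 also: stock transfer was 100 nL into about 20 µL; 0% = negative control wells and 100% = wells with untagged competitor protein; inactives centre near -12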
Sa growth inh – S. aureus growth inhibition at 42 and 30 °C, primary screen, LtaS inhibitor project, RN4220, two temperatures; 0.53% of 170,000 active; OD600, 20 h, 42 °C; active compounds read low; relative growth, % (no concentration beside the values);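 active = growth at 42 °C up to 50% and 20 or more points under that at 30 °C, or under 10% at both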;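 also: 300 nL library stock went into each well; scaled to the means of positive and negative controls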
Sa growth inh second temp – recorded beside Sa growth inh, whose call it bears; relative growth, %; measured here: growth at 30 °C;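 optical density after 20 h as mean of two plates; 100% = untreated growth and lower means inhibition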
Active calls of the source: *; nt = no result given; & = joins results of further samples.

SMILES | GIV Gai3 FP | HCMV NEC inh | Sa growth inh | Sa growth inh second temp
COc1ccc(CCN2CC(C(=O)NCCc3ccc(C)cc3)CC2=O)cc1OC (stereo not given) | 101 | nt | 113 | 87
CCOC(=O)N1CCC(c2nc(C)sc2C(=O)NCc2ccc(C)cc2)CC1 | 102 | 0 | 96 | 81
CCOC(=O)c1nc2ccccc2n(C(=O)c2ccc(F)cc2)c1=O | 94 | -34 | nt | nt
O=C(CCn1c(=O)c2cccn2c2cccnc21)NCc1cccc(Br)c1 | 99 | nt | 108 | 86
Cc1nn(-c2ccccc2)c(-c2ccccc2)c1C(=O)O | 103 | -15 | 120 | 98
CCN(CC)c1ccc(Nc2cc(C)c(C#N)c3nc4ccccc4n23)cc1 | nt | -10 | 117 | 76
Cc1nn(-c2cc(N(C)C)ncn2)c(C)c1CCC(=O)Nc1cccc(Br)c1 | 102 | -31 | nt | nt
CCOC(=O)c1ccc(NC(=O)CSc2cc(=O)n(CC)c3ccccc23)cc1 | 99 | nt | 122 | 96
CC(OC(=O)c1ccc2ncsc2c1)C(=O)Nc1ccc(S(N)(=O)=O)cc1 (stereo not given) | nt | -13 | 96 | 95
COc1ccc(N2CCN(C(=O)c3ccc(C)c(NC(=O)c4nsc5ccccc45)c3)CC2)cc1 | 103 | nt | 107 | 91
COc1ccccc1-c1[nH]ncc1CNCc1ccccc1C | 101 | nt | 99 | 85
Cc1cc(C)c(C#N)c(SCSc2ccccc2)n1 | nt | -20 | 79 | 89
CNc1oc(-c2ccc(S(=O)(=O)N3CCOCC3)cc2)nc1C#N | 99 | -30 | nt | nt
Cc1ccc(C(=O)NC2CC3CCCC(C2)N3C(=O)NC2CCCCC2)cc1 (stereo not given) | 101 | -10 | 106 | 99
CCC(C)Sc1nc2c([nH]c3ccccc32)c(=O)n1-c1ccccc1 (stereo not given) | 102 | nt | 100 | 87
COC(=O)c1ccc(CNCC(=O)Nc2ccc(C(=O)OC)cc2)cc1 | nt | -16 | 98 | 86
Cc1cccn2cc(-c3cccc(NS(=O)(=O)c4ccc(Cl)c(Cl)c4)c3)nc12 | 100 | 19 | 111 | 91
CCOc1ccccc1NC1(c2ccccc2)C(=O)c2ccccc2C1=O | 93 | nt | 127 | 93
O=C(Cn1cnc2ccccc2c1=O)OC1CCCCC1 | nt | 1 | 91 | 95
COC(=O)Cc1nc(NC(=O)C2CCC2C(=O)O)sc1C (stereo not given) | 104 | -38 | 101 | 84
O=C(Nc1ccnn1Cc1ccco1)c1ccc(Br)o1 | 103 | -7 | nt | nt
Cc1ccc2c(=O)cc(C(=O)N(Cc3ccc(N(C)C)cc3)C3CCS(=O)(=O)C3)oc2c1 (stereo not given) | 107 | 16 | 104 | 89
Cn1c(=O)c2sccc2n2c(SCc3ccc(Br)cc3)nnc12 | 102 | -36 | nt | nt
Cc1ccc(CNS(=O)(=O)c2cc3c(cc2C)NC(=O)CO3)cc1 | 110 | nt | 117 | 86
O=c1c2c3c(sc2nc(SCc2ccccc2)n1Cc1ccco1)CCC3 | 104 | -1 | 130 | 109

Some of these compounds in order of number of heavy atoms, smallest number first:
SMILES | GIV Gai3 FP | HCMV NEC inh | Sa growth inh | Sa growth inh second temp
Cc1cc(C)c(C#N)c(SCSc2ccccc2)n1 | nt | -20 | 79 | 89
Cc1nn(-c2ccccc2)c(-c2ccccc2)c1C(=O)O | 103 | -15 | 120 | 98
COc1ccccc1-c1[nH]ncc1CNCc1ccccc1C | 101 | nt | 99 | 85
CC(OC(=O)c1ccc2ncsc2c1)C(=O)Nc1ccc(S(N)(=O)=O)cc1 (stereo not given) | nt | -13 | 96 | 95
Cc1nn(-c2cc(N(C)C)ncn2)c(C)c1CCC(=O)Nc1cccc(Br)c1 | 102 | -31 | nt | nt
Cc1ccc2c(=O)cc(C(=O)N(Cc3ccc(N(C)C)cc3)C3CCS(=O)(=O)C3)oc2c1 (stereo not given) | 107 | 16 | 104 | 89

(next part)
SMILES | GIV Gai3 FP | HCMV NEC inh | Sa growth inh | Sa growth inh second temp
Cc1nc2cccc(C(=O)N3CCN(c4ccccc4)CC3)c2o1 | nt | -5 | 92 | 80
O=C(Cc1ccc(-c2ccccc2)cc1)OCC(=O)N1CCCCC1 | nt | -30 | 104 | 91
Clc1ccc2c(Nc3ccccc3)ccnc2c1 | 101 | -9 | 96 | 76
Cc1ccc(CN2C(=O)CC(c3ccc(C)cc3)CC2=O)cc1 | 96 | -8 | nt | nt
CSc1nnc(-c2ccc(C(C)(C)C)cc2)n1Cc1ccco1 | 102 | -5 | 85 | 77
O=C(Nc1ncnc2sccc12)C1CCCCC1 | 105 | -31 | 4.5* | -0.4*
Cc1cccc(C(=O)N/N=C/c2ccc[nH]2)c1 | 109 | -17 | 95 | 104
c1ccc(-n2cnc3cc(NCc4ccco4)ccc32)cc1 | 97 | nt | 64 | 40
Cc1ccc(S(=O)(=O)N2CC(=O)c3ccccc3-c3ccccc32)cc1 | nt | -7 | 105 | 85
FC(F)(F)c1cc(-c2ccccn2)nc2cc(-c3ccccc3)nn12 | 103 | -11 | 102 | 90
CC(C)(C)OC(=O)N1C(C(=O)O)COC1(C)C (stereo not given) | 97 | 38 | 94 | 89
CCOc1ccc(N(CC)C(=O)CSc2n[nH]c(-c3ccccc3)n2)cc1 | 105 | nt | 101 | 89
CN(C)c1ccc(C(=O)Nc2cccc(-c3nc4cccnc4s3)c2)cc1 | 101&104 | -2&-12 | 114 | 97
O=C(NCc1ccccc1)C1CCN(c2ncnc3c2sc2cccc(F)c23)CC1 | 106 | 8 | nt | nt
Cc1nc2c(ccc3nc(NC(=O)c4ccc(S(=O)(=O)N5CCCCCC5)cc4)sc32)s1 | 104 | -14 | nt | nt
CCCCN1C(=O)c2ccc(C(=O)O)cc2C1=O | nt | -32 | 89 | 101
Cc1ccc(COC(=O)c2nnn(-c3ccc(Br)cc3)c2C)c(C)c1 | 100 | 4 | nt | nt
N#Cc1sc2nccc(Nc3ccccc3)c2c1N | 105 | -7 | 106 | 113
FC(F)(F)c1cccc(N2CCN(C3=Cc4ccccc4C3)CC2)c1 | 99 | -25 | 93 | 86
COc1ccccc1-n1c(SC)nc2c(c1=O)C1(CCCCC1)Cc1ccccc1-2 | 98 | -28 | nt | nt
N#Cc1ccc(C(=O)CSc2cccc[n+]2[O-])cc1 | nt | -13 | 97 | 86
Cc1nnsc1C(=O)NCc1ccc(N2CCOCC2)cc1 | 102 | -50 | 112 | 89
O=C1COc2ccc(C(=O)COC(=O)c3cccnc3)cc2N1 | nt | -20 | 77 | 93
CC1Cc2ccccc2N1C(=O)COc1cccc(C#N)c1 (stereo not given) | nt | -7 | 91 | 83
Cc1oc(S(=O)(=O)N2CCCCC2)cc1C(=O)Nc1ccc(F)cc1 | 104 | -9 | 109 | 83

Continuation.
SMILES | GIV Gai3 FP | HCMV NEC inh | Sa growth inh | Sa growth inh second temp
COc1cccc(C(C(=O)NCc2ccccc2)N(C(=O)Cn2nnc3ccccc32)c2cccc(C(C)=O)c2)c1 (stereo not given) | 101 | -4 | 110 | 88
Cc1cccc(N2CCN(CC(O)CN3C(=O)c4ccccc4C3=O)CC2)c1 (stereo not given) | nt | -24 | 99 | 84
COC(=O)c1ccc(N=C2SC(C(=O)NCCc3ccccc3)CC(=O)N2C)cc1 (stereo not given) | 102 | -23 | nt | nt
COc1cccc(-c2cc(C(F)(F)F)n3nc(C)c(-c4ccccc4)c3n2)c1 | 104 | -8 | 101 | 93
CCOc1ncccc1C(=O)N1CCCC1c1nc2ccccc2s1 (stereo not given) | nt | -18 | 94 | 99
COC(=O)c1c(NC(=O)C2=Cc3cc(C)ccc3OC=C2)sc2c1CCC(C)C2 (stereo not given) | 103 | -27 | nt | nt
CCOC(=O)c1cc2oc(C)cc2n1CCCN1C(=O)c2ccccc2C1=O | 105 | 6 | -0.7* | -0.5*
CC1CCCCC1NC(=O)CC1Oc2ccccc2NC1=O (stereo not given) | 103 | 2 | 100 | 87
COc1ccc(-c2ccc[nH]2)cc1 | 223 | -21 | 97 | 69
Cc1c(Cl)cccc1NC(=O)c1cnc2sc(N3CCCC3)nn2c1=O | 101 | nt | 88 | 86
O=C(COc1ccccc1-c1nc(-c2ccccc2)no1)Nc1cccc(Cl)c1 | 97 | 0 | nt | nt
COc1ccc(Nc2cc(C(=O)NCc3ccccc3)c3ccccc3n2)cc1 | 100 | -11 | 108 | 105
Cc1[nH]n(-c2ccccc2)c(=O)c1C=Nc1cc(Br)ccc1O | 107 | -8 | nt | nt
N#CCc1nc(-c2cccc(Cl)c2)n[nH]1 | 101 | 12 | 86 | 82
CCOc1ccc(CCNC(=O)CCc2c(C)nc3c(c(C)nn3-c3ccccc3)c2C)cc1OCC | 99 | 1 | 104 | 87
O=c1[nH]c(=S)n(-c2ccccc2)c(O)c1C=Nc1ccc(N2CCOCC2)c(Br)c1 | nt | 7 | 91 | 98
CC(C)CC(NC(=O)C1CCCCC1)C(=O)Nc1cccc(C(F)(F)F)c1 (stereo not given) | 109 | -2 | 90 | 99
Cn1cc(C(=O)NC2CCCCCC2)c(=O)c2cc(S(=O)(=O)N3CCCCCC3)ccc21 | 107 | nt | 113 | 93
COc1ccc(-c2nnc(SCC(=O)N3CCc4ccccc43)o2)cc1OC | 105 | 0 | 123 | 91
O=C(CSc1ccc2nnc(-c3cccnc3)n2n1)NCc1ccccc1 | 103 | -7 | 99 | 95
N#Cc1c2n(c(=O)[nH]c1=O)CCC2 | nt | -19 | 106 | 94
COc1cccc(CN(C)S(=O)(=O)c2ccc3c(c2)OCCO3)c1 | nt | -40 | 108 | 98
O=C(Cn1c(=O)n(CC2CCC(C(=O)NCc3ccccc3)CC2)c(=O)c2ccccc21)NCc1ccco1 (stereo not given) | 102 | -2 | 107 | 94
CC(NCc1ccc2c(c1)OCO2)C(=O)N1CCc2ccccc21 (stereo not given) | nt | -40 | 95 | 94
Cc1c2cnn(-c3ccccc3)c(=O)c2c(C)n1CC(=O)N1CCN(c2cccc(Cl)c2)CC1 | 106 | -10 | 111 | 87

The final 3 entries of the section above lead into the next:
SMILES | GIV Gai3 FP | HCMV NEC inh | Sa growth inh | Sa growth inh second temp
O=C(Cn1c(=O)n(CC2CCC(C(=O)NCc3ccccc3)CC2)c(=O)c2ccccc21)NCc1ccco1 (stereo not given) | 102 | -2 | 107 | 94
CC(NCc1ccc2c(c1)OCO2)C(=O)N1CCc2ccccc21 (stereo not given) | nt | -40 | 95 | 94
Cc1c2cnn(-c3ccccc3)c(=O)c2c(C)n1CC(=O)N1CCN(c2cccc(Cl)c2)CC1 | 106 | -10 | 111 | 87
CCOC(=O)c1c(N)sc2c1CC(C)(C)OC2 | 124 | -19 | 94 | 86
O=C(CSc1ncccc1C(F)(F)F)c1ccc(Cl)cc1 | 97 | 4 | 93 | 108
O=C(NCc1ccccc1)c1ccc2nc(CCc3ccccc3)oc2c1 | 99 | nt | 93 | 95
CC(c1ccccc1)C1NC(C(=O)O)CS1 (stereo not given) | nt | -4 | 104 | 84
O=C(CC1(O)C(=O)N(Cc2ccccc2Cl)c2ccccc21)c1ccccn1 (stereo not given) | 104 | -20 | 95 | 85
N#CC(C#N)=C(N)/C(C#N)=C\c1ccc(-c2ccccc2)o1 | 124 | -19 | 106 | 56
COc1ccc(OC)c(NC(=O)c2ccc3nc(C(C)C)oc3c2)c1 | 105 | nt | 80 | 86
COc1cccc(NC(=O)COc2cccc(-c3nc(-c4ccccc4)no3)c2)c1 | 110 | 7 | nt | nt
O=C(Nc1cccc(C(F)(F)F)c1)C1CCCN1S(=O)(=O)c1cccc2nsnc12 (stereo not given) | 105 | -116 | 91 | 84
Cc1nn(S(=O)(=O)c2ccc(F)cc2)c(C)c1S(=O)(=O)N1CCCCC1 | 102 | nt | 83 | 91
COc1cc(C2c3c(-c4ccccc4O)n[nH]c3C(=O)N2Cc2ccco2)ccc1OCC(C)C (stereo not given) | 102 | 5 | 93 | 55
Cc1csc2nc(CNS(=O)(=O)c3ccc(Br)cc3)cn12 | 107 | 2 | nt | nt
CC(C)CN(CC(C)C)S(=O)(=O)N1CCC(C(=O)NC2CC2)CC1 | 97 | -12 | 97 | 90
O=C(CN1CCN(Cc2ccccc2)CC1)N1CCOCC1 | 107 | 13 | 125 | 95
CSC(SC)=C(C#N)C(=O)c1ccc(Cl)cc1 | 99 | -3 | 111 | 93
CCN=c1scc(-c2ccccc2)n1/N=C/c1ccccn1 | nt | -70 | 14 | 24
CCC(=O)N1CCc2cc(Br)cc(S(=O)(=O)CCC(=O)NCc3ccccc3)c21 | 101 | -22 | 103 | 93
COC(=O)c1cc(OC)c(OC)cc1NC(=O)c1ccc2c(c1)CC(c1ccccc1)OC2=O (stereo not given) | 105 | -3 | nt | nt
NNC(=O)CSc1nc2scc(-c3ccccc3)c2c(=O)n1-c1ccccc1 | 107 | -13 | nt | nt
CCCNC(=O)c1ccc(CS(=O)(=O)c2ccc(OC)cc2)o1 | 99 | nt | 106 | 86
O=C(NCc1ccccc1)c1ccc2c(c1)N(Cc1ccc(F)cc1)CCS2 | 104 | 11 | 145 | 91
COc1ccc(C2=NS(=O)(=O)N(C)C(C(=O)NC(C)c3ccccc3)=C2)cc1OC (stereo not given) | 106 | -68 | 101 | 76
Cc1cccc(C(=O)NCCCN2CCCC2=O)c1 | nt | 1 | 95 | 91

No enrichment for hits; 0.83% or so of the library scored in one or more.
